PINK1 modulator = PINK1 expression modulation | PINK1 immunofluorescence, high-content cytometry, 24 h | Potency, µM (doses to about 76.6 µM), without a hit: at the highest dose activation (PINK1 increase), hits mostly activators | 0.2% of 410,000 active | AID 624263; active = well fitted activation curve with a large enough effect; inconclusive = small, poorly fitted or top-dose-only effect; inactive = flat fitted curve, though single readings scatter; cell line not stated here;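 also: potency is read from the fitted curve at half-maximal effect; % of control where 0% means no effect; nearly all actives have a fitted effect of over 65% in size; a mitochondrial uncoupler was the plate control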
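A stable cell line was treated with compounds at 5 concentrations for 24 hours, with CCCP as control. PINK1 levels and mitochondrial localization were measured by immunofluorescence with mitochondrial, cell and nuclear markers after fixation, read by laser-scanning cytometry.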
D2 potentiator = positive allosteric modulators of human D2 dopamine receptor. 0.23% of 360,000 active. P14416. potentiation, % (test concentration not listed). DiscoveRx D2 beta-arrestin cells, luminescence, 90 min; 100% = 57 uM dopamine signal; active = potentiation of 50% or more; inconclusive = 30% to 50%; inactive = 30% or less;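 also: compound concentration not given in the record; tested on top of an EC20 dose of dopamine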
Target sequence (P14416 whole entry, looked up): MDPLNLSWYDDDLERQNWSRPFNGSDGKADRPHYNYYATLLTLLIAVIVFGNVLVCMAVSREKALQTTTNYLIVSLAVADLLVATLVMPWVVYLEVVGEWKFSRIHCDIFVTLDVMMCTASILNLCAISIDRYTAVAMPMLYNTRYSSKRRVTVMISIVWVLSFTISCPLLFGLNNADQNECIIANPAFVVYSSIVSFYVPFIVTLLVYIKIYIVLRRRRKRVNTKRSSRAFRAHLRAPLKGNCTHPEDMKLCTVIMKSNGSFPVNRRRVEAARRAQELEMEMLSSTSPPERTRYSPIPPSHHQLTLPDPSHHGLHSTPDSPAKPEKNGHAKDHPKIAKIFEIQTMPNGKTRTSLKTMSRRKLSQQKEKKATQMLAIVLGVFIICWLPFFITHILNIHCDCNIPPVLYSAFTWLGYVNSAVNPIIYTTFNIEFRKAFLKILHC
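D2 cells co-treated with compound plus 50 nM dopamine (EC20) for 90 min at 37 deg C to detect potentiation. Beta-arrestin recruitment was read as enzyme-fragment luminescence after 1 h at ambient temperature. Full response was set by 57 uM dopamine.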
Six1-Eya2 blk = inhibitors of human Six1/Eya2 interaction; AlphaScreen GST-Six1/His-Eya2 binding, biochemical; hits give low values; control for the full effect not named in the record; activity change, % (concentration not given with the values); 0.56% of 360,000 active; AID 651725; in the data active = activity change below about -65%; inconclusive = about -30% to -65%; inactive = above about -30%; also: % is scaled to controls: 0 for no effect and ±100 for the full control effect
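Homogeneous AlphaScreen proximity assay pairing GST-Six1 with His-tagged Eya2 (added as 5X mix: 250 nM and 500 nM) in 50 mM Tris pH 8.0, 300 mM NaCl, 1 mM TCEP. Glutathione donor and nickel acceptor beads; 1 h, 37 °C, dark.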
TRPML1 ag = activates the human TRPML1 channel | 0.12% of 410,000 active | TRPML1-expressing cells, Ca2+ dye fluorescence, FDSS; host cell line not named in the record; reference of the full effect not given here | Q9GZU1 | activation, % (test concentration not listed); in the data active = activation above about 50%; inconclusive = about 30% to 50%; inactive = below about 30%; also: 0% is about no effect; the text of the record puts the active cut at 80%
Target sequence (Q9GZU1 whole entry, looked up): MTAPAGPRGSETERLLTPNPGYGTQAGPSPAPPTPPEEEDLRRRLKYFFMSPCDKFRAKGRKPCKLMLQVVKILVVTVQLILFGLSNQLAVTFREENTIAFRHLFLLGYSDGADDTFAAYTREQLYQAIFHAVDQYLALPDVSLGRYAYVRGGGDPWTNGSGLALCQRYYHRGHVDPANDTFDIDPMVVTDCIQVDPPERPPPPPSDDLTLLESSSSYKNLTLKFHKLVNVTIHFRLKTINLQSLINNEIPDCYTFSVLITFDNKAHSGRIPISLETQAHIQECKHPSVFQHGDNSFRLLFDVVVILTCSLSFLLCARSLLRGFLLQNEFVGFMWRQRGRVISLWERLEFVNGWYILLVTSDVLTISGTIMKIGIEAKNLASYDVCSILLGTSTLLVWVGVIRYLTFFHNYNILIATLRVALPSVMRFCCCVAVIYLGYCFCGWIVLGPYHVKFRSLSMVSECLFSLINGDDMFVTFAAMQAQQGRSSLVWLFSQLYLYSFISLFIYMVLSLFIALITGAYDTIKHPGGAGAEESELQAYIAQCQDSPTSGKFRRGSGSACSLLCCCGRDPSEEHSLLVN
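Tetracycline-induced TRPML1-DL cells are seeded and incubated overnight before loading with a no-wash Ca2+ dye and quencher. Agonist activity is taken from the 110 s fluorescence read following compound pin-transfer on an FDSS, before EC80 54-4 challenge.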
CtBP-E1A inh = CtBP/E1A binding inhibition; AlphaScreen GST-E1A/His-CtBP binding, 1536-well; hits give low values; control for the full effect not named in the record; activity change, % (test concentration not listed); 0.49% of 340,000 active; AID 651724; in the data active means activity change below about -65%; inconclusive means about -30% to -65%; inactive means above about -30%; also: % is scaled to controls: 0 for no effect and ±100 for the full control effect; compound concentration not given in the record
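Steps: dispense buffer (Tris pH 8.0, NaCl 300 mM, TCEP 1 mM, BSA, Tween 20); add 5X protein mix (GST-E1A, His-CtBP, 125 nM each); pin 23 nL compound; 2 h at 37 °C, dark; add 5X beads (50 ug/mL); 1 h; read.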
D2 agonist = activates the human D2 dopamine receptor; P14416; activation, % (no concentration beside the values); AID 624465; DiscoveRx PathHunter D2 beta-arrestin, luminescence, 90 min; 100% = 57 uM dopamine signal; 0.084% of 360,000 active; in the data active = activation above about 40%; inconclusive = about 15% to 40%; inactive = below about 15%; also: compound concentration not given in the record; the text of the record calls up to 30% inactive
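DiscoveRx PathHunter D2 beta-arrestin cells (2,100/well) attached overnight, then compound-stimulated 90 min at 37 C in HBSS/10 mM HEPES/0.1% Tween-20 buffer; beta-galactosidase complementation read by luminescence after 1 h at ambient temperature. Dopamine 57 uM final (EC100) as control.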
* = called active by the depositor; ? = inconclusive; / = not tested or not shown; & = joins results of further samples; [ ] = another dose, or the depositor's remark. Rows are unselected, and some 1.3% of all compounds hit somewhere here.

cpd | mol | PINK1 modulator | D2 potentiator | Six1-Eya2 blk
1 | COc1ccc(OC)c(NC(=O)COC(=O)CCC2CCCC2)c1 | 3.2% | -2 | -1
2 | OC(c1ccccc1)c1nc(-c2cccs2)cs1 (stereo not given) | 2.1% | -5 | 4
3 | COc1ccc(NC2CC(=O)N(c3cccc(C)c3)C2=O)cc1 (stereo not given) | 1.1%[38.3 µM] | -9 | -4
4 | O=C(c1cccc(S(=O)(=O)Nc2ccccc2F)c1)N1CCN(c2ccccc2F)CC1 | 0.6% | 8 | -13
5 | O=c1c2ccccc2nnn1CSc1nnc(-c2cccc(S(=O)(=O)N3CCCCC3)c2)o1 | -5.6% | -5 | -11
6 | Cc1ccc(SCC(=O)NC(=O)c2ccc(S(=O)(=O)N(C)C)cc2)cc1C | -0.7% | -7 | 1
7 | O=C(CCc1nc(-c2ccccc2F)no1)NC1CCN(Cc2ccccc2)CC1 | -0.5% | -28 | 0
8 | Cn1c(-c2cnn(-c3ccccc3)c2N)n[nH]c1=S | -0.5% | -5 | 6
9 | Cc1noc(/C=C/N(C)C)c1S(=O)(=O)N1CCN(c2ccccc2)CC1 | 20% | 1 | -16
10 | Cc1c(Cl)cccc1NC(=O)Nc1cnccn1 | -1.3% | -7 | -5

cpd | TRPML1 ag | CtBP-E1A inh | D2 agonist
1 | -0.4 | / | -2.2
2 | -0.6 | 6 | -3.5
3 | 2.6 | -6 | -3.3
4 | 0.9 | -22 | 2.5
5 | 0.0 | -5 | -3.0
6 | 3.7 | -5 | 2.8
7 | 0.8 | -1 | -1.3
8 | 0.9 | / | -4.5
9 | 0.1 | -16 | 0.0
10 | -0.7 | -13 | -2.0

The list continues:
cpd | mol | PINK1 modulator | D2 potentiator | Six1-Eya2 blk
11 | NS(=O)(=O)c1ccc(NC(=O)C(=O)NCCC(=O)O)cc1 | 1.6% | -3 | 14
12 | CC1CN(C(=O)NCc2ccccc2)c2cc(Cl)ccc2O1 (stereo not given) | -1.6%&0.8% | 1 | 6
13 | CC(Sc1ccc(Cl)cc1)C(=O)NNC(=O)c1ccco1 (stereo not given) | -1.0% | 6 | 9
14 | COc1ccccc1OCC(=O)N(Cc1nc(-c2ccccc2)no1)C(C)C | 13% | -5 | 12
15 | N#Cc1c(N2C(=O)C3C4C=CC(C4)C3C2=O)sc2c1CCC2 (stereo not given) | -2.0% | -2 | 4
16 | COc1ccc(OC)c(N(CC(=O)NC2CCCCCC2)S(=O)(=O)c2ccc(C)cc2)c1 | 12% | -2 | -9
17 | C=CCN(C(=O)CNC(=O)c1ccco1)C(C(=O)NC1CCCCC1)c1ccc(OC)cc1 (stereo not given) | 0.0% | -12 | -3
18 | C[C@H]1CN([C@@H](C)CO)S(=O)(=O)c2ccc(Br)cc2O[C@@H]1CN(C)S(=O)(=O)c1ccccc1F | 2.1% | -4 | -2
19 | Cc1nnc(SCCN2CCOCC2)n1-c1cccc(Cl)c1 | -2.5% | 2 | 4
20 | O=C(CSc1nnnn1-c1ccc(Cl)cc1)Nc1cccnc1Cl | 2.7% | 17 | 2

cpd | TRPML1 ag | CtBP-E1A inh | D2 agonist
11 | 1.6 | -18 | 0.5
12 | 1.5&1.8 | 12 | 3.2
13 | 0.1 | 8 | -1.1
14 | 2.3 | 5 | -3.6
15 | 0.2 | -4 | -1.9
16 | -0.4 | -4 | 1.1
17 | 0.0 | 5 | -0.6
18 | 0.1 | -5 | -2.4
19 | 0.9 | 1 | 1.8
20 | -1.5 | 2 | -6.6

Next results.
cpd | mol | PINK1 modulator | D2 potentiator | Six1-Eya2 blk
21 | CCOC(=O)n1c(=O)n(Cc2ccc(F)cc2)c2ccccc21 | 1.5% | -6 | -1
22 | CN(C)c1nc2n(c(=S)n1)CCS2 | -0.7% | -5 | 0
23 | CN(C(=O)C1CCCO1)c1nnc(-c2cnccn2)s1 (stereo not given) | -0.2% | 1 | 3
24 | O=C(CC[C@H]1O[C@@H](n2ccc(=O)[nH]c2=O)[C@H](O)[C@@H]1O)NCc1ccc2c(c1)OCO2 | 5.3% | -4 | 14
25 | CCN(CC)C(=O)c1ccccc1NC(=O)c1ccccc1SC | 0.2% | -6 | 5
26 | CCCCn1c(N)c(N(CC(C)C)C(=O)c2ccc(S(=O)(=O)N3CCC(C)CC3)cc2)c(=O)[nH]c1=O | 2.8% | -12 | 6
27 | Cc1nonc1NC(=O)CSc1nc2ccccc2[nH]1 | 2.3% | -7 | 5
28 | O=C(N/N=C/c1ccc(Br)cc1)c1ccccc1-n1cccc1 | 5.1%[38.3 µM] | 0 | -9
29 | CC(C)c1ccc(OCc2ccc(C(=O)N(C)C)o2)cc1 | 4.6% | 0 | 1
30 | CCOc1ccc(S(=O)(=O)NCc2ccccn2)cc1NC(=O)c1ccccc1 | 12% | -6 | -12

cpd | TRPML1 ag | CtBP-E1A inh | D2 agonist
21 | 0.9 | -3 | -0.2
22 | -0.3 | -1 | -4.4
23 | 0.3 | -3 | -0.4
24 | 0.7 | -9 | -5.8
25 | 1.8 | 2 | -2.3
26 | 0.0 | -2 | -1.1
27 | -0.5 | 22 | -1.8
28 | 2.0 | -11 | 1.6
29 | 3.9 | -3 | 1.1
30 | -1.2 | -8 | 2.1

Continuation:
cpd | mol | PINK1 modulator | D2 potentiator | Six1-Eya2 blk
31 | O=C(NCCS(=O)(=O)N1CCN(c2ccc(F)cc2)CC1)c1ccc2c(c1)OCO2 | 0.8% | 15 | -2
32 | COC(=O)C(NC(C)=O)(Nc1sc2c(c1C(N)=O)CCCC2)C(F)(F)F (stereo not given) | / | 7 | -11
33 | O=C(CSc1nnc(CNC(=O)c2c(F)cccc2Cl)o1)Nc1ccccc1 | -1.5% | -10 | 6
34 | O=C(CSc1nnc(Cc2ccccc2)o1)NCc1ccc2c(c1)OCO2 | -0.3% | -7 | 2
35 | COCCOc1nc2ccccc2nc1C | 1.7% | -12 | 7
36 | O=C(O)CCCCCNC(=O)Nc1ccc2c(c1)OCCO2 | 1.3% | -3 | 3
37 | COC(=O)c1c(NC(=O)c2ccccc2)sc(C(=O)c2ccccc2)c1C | -1.1% | -6 | 3
38 | CN1CCN(C(CNC(=O)C(=O)Nc2ccc3c(c2)OCCO3)c2ccc(F)cc2)CC1 (stereo not given) | 3.1% | -2 | 5
39 | CN1CCN(C(=O)CCc2nc(-c3ccc(Cl)cc3)no2)CC1 | -0.7% | -16 | 3
40 | CC1CCCCN1C(=O)COC(=O)c1ccc2ccccc2n1 (stereo not given) | 2.1% | 12 | 5

cpd | TRPML1 ag | CtBP-E1A inh | D2 agonist
31 | 0.4 | -1 | -4.1
32 | -0.1 | -17 | -4.2
33 | 0.8 | 0 | -2.0
34 | -0.6 | -15 | -17
35 | 3.1 | 0 | -1.0
36 | 0.8 | 20 | -1.0
37 | 3.1 | -12 | -1.8
38 | 1.0 | -4 | 1.9
39 | -0.2 | -6 | -2.8
40 | 1.5 | 0 | 0.9

Next section:
cpd | mol | PINK1 modulator | D2 potentiator | Six1-Eya2 blk
41 | Nc1nc(N)c(-c2cccc(C(F)(F)F)c2)c(Cc2cccc(C(F)(F)F)c2)n1 | -0.9% | -6 | 1
42 | Cc1ccc(-n2c3c(cc(C(=O)NCC(=O)c4ccccc4)c2=O)C(=O)CCC3)cc1 | 4.7% | 24 | 1
43 | COc1ccc(-c2nnn(CC(=O)c3c[nH]c4ccccc34)n2)cc1OC | 1.8%[38.3 µM] | 5 | -1
44 | O=C(Nc1cccc(C(F)(F)F)c1)Nc1ccc2nc([C@@H]3O[C@H](CO)[C@@H](O)[C@H](O)[C@H]3O)[nH]c2c1 | 1.0% | -9 | -5
45 | COC(=O)CSc1nc(-c2ccccc2)c2c(c1C#N)CCCC2 | 0.0% | 0 | 10
46 | CC1(C)CC(=O)C(C=NCC2CCNCC2)=C(O)C1 | 1.6% | 10 | 0
47 | O=[N+]([O-])c1ccc(COc2cccnc2)cc1 | 1.9% | -6 | 1
48 | CCN(CC)CCOC(=O)c1ccc(N/C=C(/C#N)c2nc(-c3cc4ccccc4oc3=O)cs2)cc1 | 9.5% | -8 | 0
49 | CCCN(c1ccc(C(C)C)cc1)S(=O)(=O)c1c(C)[nH]c(=O)[nH]c1=O | -5.2%[38.3 µM] | 13 | -2
50 | CCN(CC(=O)Nc1c(F)cccc1F)C(=O)c1cc(S(=O)(=O)N(CC)CC)ccc1N1CCCCC1 | -0.6% | -5 | 2

cpd | TRPML1 ag | CtBP-E1A inh | D2 agonist
41 | 1.5 | 8 | -1.4
42 | -0.4 | 6 | -1.6
43 | 3.2 | 0 | 2.4
44 | -0.4 | 3 | 11
45 | 0.9 | 11 | 0.1
46 | 0.5 | 16 | -2.3
47 | 1.8 | 16 | -1.9
48 | -0.2 | 2 | 1.6
49 | -0.2 | 1 | -3.5
50 | 3.3 | 2 | -0.6

(listing goes on)
cpd | mol | PINK1 modulator | D2 potentiator | Six1-Eya2 blk
51 | O=C(Nc1nccs1)c1nc[nH]c1C(=O)NCc1ccccc1 | 1.0% | -4 | ?
52 | COc1ccc(OC)c(NC=C2C(=O)OC3(CCCCC3)OC2=O)c1 | 1.9%[38.3 µM] | 0 | 19
53 | COc1ccc(Cn2nnnc2C(c2ccccc2Cl)N2CCC(C(N)=O)CC2)cc1 (stereo not given) | -1.9% | 23 | 14
54 | O=C(NCCO)C(O)C(O)C(=O)NCCO (stereo not given) | -1.3% | -5 | 0
55 | CCCCN1CC(COCc2ccccc2)Oc2cccc(N3CCCC3)c2S1(=O)=O (stereo not given) | 0.9% | -11 | 3
56 | Cn1cccc1C(=O)OCC(=O)NCc1ccc2c(c1)OCO2 | 0.0% | -4 | -5
57 | O=C(Nc1ccc2[nH]ccc2c1)c1ccc(F)cc1 | 4.8% | 3 | 3
58 | O=C(O)c1ccc(-n2nc(C(F)(F)F)c3c2CCCC3)cc1 | 3.1%&-3.5% | 0&-13 | 6&12
59 | Cc1nc(SCC(=O)Nc2c(C)n(C)n(-c3ccccc3)c2=O)[nH]c(=O)c1C | / | -5 | 2

cpd | TRPML1 ag | CtBP-E1A inh | D2 agonist
51 | -0.1 | ? | -3.5
52 | 0.4 | 21 | -1.6
53 | -0.2 | 24 | -4.7
54 | 1.7 | 6 | -1.9
55 | 0.3 | -27 | -7.1
56 | -0.8 | / | -3.6
57 | 0.3 | / | 3.1
58 | 0.0&4.7 | -1&-2 | -5.3&-2.6
59 | 0.3 | 10 | -0.5

Assay outcomes from PubChem.
